NPYLR7 agonist: activates Aedes aegypti NPYLR7 receptor. activation, % at 10 µM. HEK293T NPYLR7/Galpha15, GCaMP6s calcium fluorescence. actives 0.15% (n = 270,000). AID 1259423; in the data active = activation above about 40%;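 note: 0% = vehicle and 100% = reference agonist at the receptor; some compounds past the cut are filed as inactive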
NPYLR7 agonist max-min: also measured in NPYLR7 agonist; calls as there; activation, %; measured here: Max-Min RFU normalised activation; some inactives read as strong as hits;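 span of the calcium signal over five minutes; 0% = vehicle and 100% = native peptide agonist; compound fluorescence can raise it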
* marks the source's active call; other numbers are inactive results; & = joins results of further samples. These rows are one share of the data; the hit share may differ from the screen's.

SMILES	NPYLR7 agonist	NPYLR7 agonist max-min
OC1C(c2ccccc2)=NNC1c1ccccc1 (configuration not stated)	-3	-5
Cn1ccnc1C(=O)C1CCCN(C(=O)c2cc(COc3ccc(F)c(F)c3)on2)C1 (configuration not stated)	15&-8	5&-10
CCc1nc(C2CCCN2c2ncc(Br)cn2)no1 (configuration not stated)	4	5
CCc1nc2ccc(C(=O)N(CC)CCN(C)C)cn2c1N(C)Cc1cc2ccccc2s1	-6	-12
COCCCn1c(C)c(C)n2c3c(=O)n(CCc4ccccc4)c(=O)n(C)c3nc12	-2	3
CC1c2cccc(O)c2C(O)=C2C(=O)[C@]3(O)C(=O)C(C(N)=O)C(=O)[C@@H](N(C)C)[C@@H]3C[C@@H]21 (some centres not stated)	-9	-14
C=CCOc1cccc(C(=O)N2CCCC(CO)(Cc3ccc(F)cc3F)C2)c1 (configuration not stated)	1	-2
O=C(NC1CC1)c1cc(-c2ccc(Cl)c(Cl)c2)nc2ccccc12	1	5
Cc1cccc(S(=O)(=O)N2CCC(Cc3ccc(C(F)(F)F)cc3)CC2)c1	1	5
Cc1cccc(C(=O)NC(C2CC2)C2CC2)n1	11	3
CC(C)Cc1noc(CN2CCN(C(=O)c3cc(F)ccc3F)CC2)n1	-3	-5
COc1ccc(Cl)c2sc(N(CCN(C)C)C(=O)C3=COCCO3)nc12	8	5
CCc1nc2ccc(C(=O)Nc3ccc(OC)c(OC)c3)cn2c1N(CC)Cc1cccc(Br)c1	17	14
Cc1cc(=O)n2c(-c3ccc(NC(=O)Nc4ccc(F)cc4)cc3)csc2n1	-3	-1
NC(=O)CSc1nc2c([nH]c3ccccc32)c(=O)n1-c1ccc(Cl)cc1	0	25
c1cncc(Oc2ccc(-n3ccnc3-c3ccncc3)cc2)c1	2	-1
O=C(N[C@@H]1CCCCC1NC(=O)C1CCN(C(=O)c2ccco2)CC1)c1ccc(F)cc1 (some centres not stated)	34	27
COCCN(Cc1cc(OC)cc(OC)c1)CC(O)COc1ccc(OC)cc1 (configuration not stated)	-3	11
O=c1[nH]ncc(N2CCCC2)c1-c1cccc2ccnn12	4	2
COc1cc(CNC(=O)c2cc3cnn(C(C)C)c3nc2C)cc(OC)c1OC	-14	-15
COC(=O)c1cc2n(n1)CCCN(Cc1cc(C#CCO)cs1)C2	21	12
CC(c1ccco1)N(C)C(=O)NCCc1cc(F)ccc1F (configuration not stated)	-1	0
COc1ccc(C(=O)NCCn2c(C)cc3ccccc32)c(OC)c1	3	2
O=C(c1ccccc1Br)N1CCN(S(=O)(=O)c2ccc(F)cc2)CC1	14	12
COc1ccc(-c2noc(CSc3nnnn3C3CC3)n2)cc1	0	6
(list continues)
SMILES	NPYLR7 agonist	NPYLR7 agonist max-min
Cc1nn2c(NCC(C)C)c3c(nc2c1-c1ccccc1)CCC3	3	3
Cc1ccc(C2=NN(C(=O)CN3CCCCC3)C(c3ccccc3C)C2)c(C)c1 (configuration not stated)	5	14
COc1cccc(C(=O)Nc2c(C)nc3scc(C)n3c2=O)c1OC	2	-4
CS(=O)(=O)Nc1ccccc1C(=O)c1ccccc1	-2	9
COc1cccc(CN2CCN(C(=O)c3cnn4c3CCCC4)CC2=O)c1	4	4
N=C(N)Sc1cn(CCNC(=O)c2ccccc2)c2ccccc12	-8	-12
CCCCc1nc(CN2CCCN(Cc3nccn3C)CC2)no1	1	0
OC(C#CCN1CCOCC1)c1cccs1 (configuration not stated)	17	6
CN(C)c1c(Cl)cccc1NC(=O)c1cc(C2CC2)[nH]n1	-1	-4
Cc1cccc(-n2c(SCc3ccc(C(=O)NC4CC4)cc3)nnc2-c2ccccc2Cl)c1	-5	-2
CC(C)N(Cc1ccccc1)Cn1nc(-c2ccc(F)cc2)n(C)c1=S	1	6
COCCN1CC(Nc2nc(CCN)nc3ccccc23)CC1=O (configuration not stated)	3	1
CC(Sc1nc2ncccn2n1)C(=O)N(C)C1(C#N)CCCCC1 (configuration not stated)	3	8
O=C(CSc1ccc2nnc(CCNS(=O)(=O)c3ccccc3)n2n1)N1CCCCC1	15	3
Cc1n[nH]c(C)c1CN1CCc2[nH]cnc2C1c1cccc2cccnc12 (configuration not stated)	12	7
CCCCOc1ccc(C(=O)Nc2ccc(-n3nc(OCCOCC)nc3-c3ccc4c(c3)OCO4)cc2)cc1	3	7
O=C(COc1ccccc1)Nc1ccc(N2CCC(NC3C4CC5CC(C4)CC3C5)CC2)cc1 (configuration not stated)	7	2
COCc1nn2c3c(cnc2c1-c1ccccc1)C(=O)CC(c1ccccc1)C3 (configuration not stated)	5	5
CCOc1ccc2ncc(C#N)c(Nc3cc(Cl)c(OC)cc3OC)c2c1	-4	-6
O=C(NCCN1CCOCC1)c1coc(CN(Cc2ccc(C(F)(F)F)cc2)Cc2ccc3c(c2)OCO3)n1	21	27
c1ccc(OCc2noc(CN3CCCC3c3ccccn3)n2)cc1 (configuration not stated)	-7	-9
CCOC(=O)c1cnc(-c2ccc(OC)cc2)nc1NCCSCc1ccco1	5	1
COc1cc(CSc2nnc(NC(=O)Cc3cccs3)s2)cc(OC)c1	-9	1
COc1ccc(OC)c(NC(=O)C2(C)CCN2C(C)C)c1 (configuration not stated)	1	-1
Cc1nc2c(c(N(C)C)n1)CCN(C(=O)c1cc3sccc3[nH]1)C2	8	5

Given with each value named: entries from further up
Molecule: CCOc1ccc2ncc(C#N)c(Nc3cc(Cl)c(OC)cc3OC)c2c1
  NPYLR7 agonist = -4
  NPYLR7 agonist max-min = -6

Molecule: O=C(NC1CC1)c1cc(-c2ccc(Cl)c(Cl)c2)nc2ccccc12
  NPYLR7 agonist = 1
  NPYLR7 agonist max-min = 5

Molecule: OC(C#CCN1CCOCC1)c1cccs1 (configuration not stated)
  NPYLR7 agonist = 17
  NPYLR7 agonist max-min = 6

Molecule: CCCCOc1ccc(C(=O)Nc2ccc(-n3nc(OCCOCC)nc3-c3ccc4c(c3)OCO4)cc2)cc1
  NPYLR7 agonist = 3
  NPYLR7 agonist max-min = 7

Additional records.
SMILES	NPYLR7 agonist	NPYLR7 agonist max-min
Fc1ccc(-c2csc(=NCC3CCCO3)n2N=Cc2ccccc2F)cc1 (configuration not stated)	1	1
CCC(=O)Nc1cccc(C(=O)NC(C)Cn2cccn2)c1 (configuration not stated)	18	3
CCC(=O)Nc1ccc(N(C)C)c(CN(CC2CCCO2)C(=O)c2ccccc2Cl)c1 (configuration not stated)	4	10
CCSc1nnc2c(n1)OC(c1ccc(OCc3ccccc3)cc1)Nc1ccccc1-2 (configuration not stated)	-5	-5
COc1cc2c(cc1OC)C1CN(C(=O)Nc3cc(F)cc4c3OCOC4)CC(=O)N1CC2 (configuration not stated)	29	12
O=C(c1cc(Cl)ccc1NCc1nc(-c2ccco2)no1)N1CCCC1	6	3
CCOC(=O)C1(C)CCCN1C(=O)c1cccc(F)c1 (configuration not stated)	0	-3
Cc1nc2ccccc2c(C)c1CC(=O)Nc1nc2c(s1)CC(C)CC2 (configuration not stated)	4	2
COc1ccccc1-c1cc(C(=O)NCC(C)C)n2nc(-c3ccc(Cl)cc3)cc2n1	-10	-5
CCC(=O)C1=C(c2cccc([N+](=O)[O-])c2)N(C(=O)CC)n2c(CC)nnc2S1	0	-1
COc1cc(NC(=O)Nc2ccc(C3NC(=S)N(C)C(C)=C3C(=O)OCC(C)C)cc2)cc(OC)c1 (configuration not stated)	23	26
Cc1nnc(NCc2n[nH]c(=O)c3ccccc23)c2ccccc12	-5	-11
Cn1c(=O)c2c(ncn2CCCn2cnc3c2c(=O)n(C)c(=O)n3C)n(C)c1=O	2	1
COc1ccc(CN2CCCC(CNC(=O)CO)C2)cc1C (configuration not stated)	8	0
Cc1cc(=O)c(C(=O)N(C)CC(=O)Nc2cccc(F)c2)nn1-c1ccc(Cl)cc1	-1	1
CC(C)(C)c1ccc(C(=O)NCC(=O)N=Nc2c(O)[nH]c3ccccc23)cc1	0	-8
CC1(C(=O)NS(=O)(=O)c2cccc(Cl)c2)CCN1C(=O)Cc1ccccc1 (configuration not stated)	-2	-4
Cc1ccc(C(=O)N2CC[C@@H](c3ccc4ccccc4c3)[C@H](O)C2)c(=O)n1C	-6	-6
CN(C)c1cc(C(C)(C)C)nc(SCc2cccc(C(=O)O)c2)n1	12	17
Cc1cc(CNC(=O)CN(C)C2CCS(=O)(=O)C2)c2[nH]c(C)c(C)c2c1 (configuration not stated)	15	4
Cc1cc(Nc2ccc3c(n2)C(=O)N(CC(=O)NCc2ccccc2)C3)n(C)n1	6	2
CC1CCN(Cc2ncc(-c3ccccc3)o2)C2CCCCC12 (configuration not stated)	4	0
Cc1csc(C(=O)NCC2(N)CCCC2)c1	3	0
O=C(N1CCC1c1ccc(F)cc1)C1(Cn2cccn2)CC1 (configuration not stated)	-6	-8
Cc1ccc(OCC(=O)Nc2cc(C)nn2-c2ncnc3c2cnn3-c2ccc(C)cc2C)cc1	8	7

Reprinted at random: 4 compounds from above
SMILES	NPYLR7 agonist	NPYLR7 agonist max-min
CCC(=O)Nc1cccc(C(=O)NC(C)Cn2cccn2)c1 (configuration not stated)	18	3
Cc1nc2ccccc2c(C)c1CC(=O)Nc1nc2c(s1)CC(C)CC2 (configuration not stated)	4	2
CC1(C(=O)NS(=O)(=O)c2cccc(Cl)c2)CCN1C(=O)Cc1ccccc1 (configuration not stated)	-2	-4
COc1cc2c(cc1OC)C1CN(C(=O)Nc3cc(F)cc4c3OCOC4)CC(=O)N1CC2 (configuration not stated)	29	12

Other compounds:
SMILES	NPYLR7 agonist	NPYLR7 agonist max-min
Cc1nnc(NC(=O)CSc2c(CC(C)C)cnc3c2c(=O)n(C)c(=O)n3C)s1	3	4
Cc1cccc(OCC(=O)Nc2ncn[nH]2)c1C	-1	-1
Cc1nc(N(C)C)nc(NCCc2nc(-c3ccncc3)n[nH]2)c1C	8	-2
C=CCNS(=O)(=O)c1ccc(C(=O)N2CCc3cnccc32)cc1	2	1
Cn1nnc2c([nH]c3ccccc32)c1=O	-5	-11
Cc1ccc2[nH]cc(-c3ccc(S(N)(=O)=O)s3)c2c1	2	-1
COc1cccc(Cc2nsc(N3CCC(C(=O)NC(Cc4ccccc4)c4ccccc4)CC3)n2)c1 (configuration not stated)	16	19
O=C(N=Nc1c(O)[nH]c2ccccc12)c1ccc2ccccc2n1	-2&0	-4&-1
CN(Cc1ccccc1Br)Cn1nc2n(C)c(=O)c3ccccc3n2c1=S	14	17
Cc1ccc(-c2cc(C(=O)N3CCCCC3C(=O)NCCN(C)C)no2)cc1 (configuration not stated)	1	1
COc1ccc(C=C2SC(=O)N(CCN)C2=O)cc1OC	1	-5
O=C(NC1CCCC1)N1CCN(C(c2ccc(F)cc2)c2ccc(F)cc2)CC1	-2	1
Cn1c(-c2ccc(-c3ccccc3)cc2)c[nH]c1=S	9&8	7&20
CCn1c(SCC(=O)Nc2ccccc2F)nc2c(-c3ccccc3)c[nH]c2c1=O	-1	-7
CCOC(=O)c1c(NC(=O)C2CC2)sc2c1CCC2	5	3
O=C(c1cc(C2CC2)on1)N1CCN(c2cccc(Cl)c2Cl)CC1	-14	-22
O=C(c1cccc(Br)c1)N(CCN1CCCC1)CC(=O)N1CCc2sccc2C1COc1ccc(F)cc1 (configuration not stated)	-1	1
CCc1sc(C(=O)Nc2nccn2Cc2ccccc2)cc1C	3	0
O=C1NC(=S)N/C1=C/c1cccc(Cl)c1Cl	0	7
CNC(=S)N(CCc1ccc(Cl)cc1)C1CC(=O)N(c2ccc(F)cc2)C1=O (configuration not stated)	-8	-12
C=CCN(Cn1nc(C2CCS(=O)(=O)C2)n(C)c1=S)C1CCCC1 (configuration not stated)	-1	13
CCOC(=O)c1c(C)[nH]c(C(=O)OCC(=O)N2CCCC2)c1C	2	7
COc1ccc(C(C)(C)CNC(=O)c2ccn(C)c(=O)c2)cc1OC	10	7
CC(C)OC(=O)c1ccc2c(c1)C(=O)N(c1cccc([N+](=O)[O-])c1)C2=O	-2	-9
O=C(NCc1cccc(F)c1)c1ccccc1N1CCC(NC(=O)C2CC2)CC1	-4	3
Other compounds
SMILES	NPYLR7 agonist	NPYLR7 agonist max-min
O=C(NCC1CCCO1)c1csc(COc2ccc3c(c2)OCO3)n1 (configuration not stated)	-3	1
Cc1ccc2c(c1)C1(SCCN1C(=O)c1cccs1)C(=O)N2Cc1ccccc1Cl (configuration not stated)	19	20
COC(=O)CSc1ccc(NC(=O)C2CC2)nn1	-3	-6
O=C(NNC(=O)c1cc(Br)c[nH]1)c1ccccc1	10	9
COc1ccc(C=C(C#N)C(=O)c2ccc(OC)cc2)cc1	1	-2
Cc1nc2sccn2c(=O)c1NC(=O)COc1ccccc1	0	-9
Cc1ccc2nc(N(Cc3cccnc3)C(=O)Cc3ccccc3)sc2c1	-10	-7
O=C(O)CSc1nnc(Cc2ccncc2)n1-c1cccnc1	-5	-5
CCOc1ccc(C(=O)Nc2ccc(Cl)c(-c3nc4ccccc4o3)c2)cc1Br	8	6
CCOc1cc(F)ccc1NC(=O)Nc1cccc(C#N)c1	0	0
O=C(c1cscn1)N1CCC2(CCCN(CCCc3ccccc3)C2)C1 (configuration not stated)	6	4
COc1ccc([C@H](C)NC(=O)c2c(C)noc2-c2ccc(C(C)(C)C)cc2)cc1	2	16
CC(C)NC(=O)N(Cc1ccccc1)CC1CC(c2cccnc2)=NO1 (configuration not stated)	-3	2
O=C1NC2(CCC2)C(=O)N1Cc1noc(C2CC2)n1	2	12
CC(=O)N1CCN(c2ncccc2CNC(=O)c2cn3ccsc3n2)CC1	0	-2
COCCCN(CC(=O)N(CCc1c[nH]c2ccccc12)Cc1ccc(C(F)(F)F)cc1)S(=O)(=O)c1cccc2cccnc12	29	22

Compound activity (PubChem BioAssay)
